LANA-H2B inh – blockers of LANA interaction with H2A/H2B – biochemical, FP readout, HTS, primary screen | cell-free LANA-H2A/H2B peptide, fluorescence polarization | inhibition, % (concentration not given with the values) | hit rate 0.6% among 320,000 | AID 2629, 2010; in the data active means inhibition mostly above about 10%, no sharp cut-off; inactive means mostly below about 6.7%;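 further: stock transfer was 7.5 nL into about 10 µL; 0% = median of vehicle wells and 100% = median of positive control wells; one replicate is shown; the record names a cut of 25% in any replicate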
A1 inh – caspase 3/7 activation in MEF A1-2A-BIM cells, primary screen, A1 inhibitor project, cell-based, luminescence, HTS; Caspase-Glo 3/7 luminescence, 3 h; percent of clofoctol response, vehicle zero; caspase activation, % (no concentration beside the values); hit rate 0.066% among 330,000;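 active means over half of replicate activation scores above 10%, or exactly half above 10 with the replicate mean above 10; inconclusive means replicate mean below 10 yet half the replicates above 10; inactive means over half of replicates below 10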;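 further: wells of about 30 µL received 50 nL stock; many hits fall short of the cut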
Calb FLC – C. albicans growth inhibition with fluconazole, primary screen, CaCi-2 strain, Alamar Blue fluorescence. growth inhibition, % (concentration not given with the values). C. albicans CaCi-2 (fluconazole-resistant clinical isolate) + fluconazole, 48 h. AID 1979, 2009. hit rate 0.57% among 300,000;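 active means most replicates above 75%; inconclusive means exactly half above 75%; inactive means most below 75%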;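 further: all wells also contain fluconazole at 8 µg/ml as a sub-toxic cotreatment; 0% = median of DMSO wells and 100% = median of geldanamycin control wells; wells of about 8 µL received 7.5 nL stock; the first replicate is given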
UCH37 inh – inhibitors of human UCH37 deubiquitinase, primary screen, biochemical, Ub-AMC cleavage, fluorescence. purified proteasome/UCH37. inhibition, % (test concentration not listed). hit rate 0.33% among 330,000. AID 588478, 2011;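 active means mean of two replicates above 20%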;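 further: 0% = compound-free wells with enzyme and 100% = wells lacking proteasome; stock transfer was 100 nL into about 20 µL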
Target sequence (Q9Y5K5 whole entry, looked up): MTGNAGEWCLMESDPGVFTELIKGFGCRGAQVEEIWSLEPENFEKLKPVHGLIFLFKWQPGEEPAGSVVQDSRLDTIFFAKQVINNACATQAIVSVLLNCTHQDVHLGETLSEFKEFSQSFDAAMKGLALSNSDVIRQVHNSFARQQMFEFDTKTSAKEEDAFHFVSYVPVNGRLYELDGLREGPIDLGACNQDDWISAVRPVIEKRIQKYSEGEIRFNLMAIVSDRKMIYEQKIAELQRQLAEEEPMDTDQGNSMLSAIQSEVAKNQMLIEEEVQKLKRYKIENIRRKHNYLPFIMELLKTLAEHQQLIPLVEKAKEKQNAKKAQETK
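Material: Human UCH37 enzyme supplied as purified proteasome complex | Schedule: 30 min preincubation with enzyme, 25 min cleavage at room temperature | Detection: AMC fluorescence 355/460 nm | Measure: % inhibition of Ub-AMC cleavage fluorescence | Controls: Wells without proteasome as full block, compound-free enzyme plus substrate as uninhibited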
Beta apoptosis – inhibitors of cytokine-induced beta cell apoptosis, primary screen, luminescence. INS-1E cytokine-induced death, ATP luminescence, 48 h; percent of positive-control rescue, neutral wells zero. protection from apoptosis, % (test concentration not listed). hit rate 0.8% among 300,000;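 active means all replicates at 75% or more, or half of them and the mean; inconclusive means half reach 75% but not the mean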;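 further: 0% = cytokine-treated negative control wells and 100% = positive control rescue; higher means more ATP so stronger rescue from cytokine killing; wells of about 40 µL received 100 nL stock; the first replicate is given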
RanGTP-Imp inh – inhibitors of RanGTP-importin-beta interaction, primary screen, biochemical, FRET, CFP-Ran, YFP-importin-beta, homogeneous; Ran GTPase (GTP-bound) - importin-beta complex; AID 2216, 2009; inhibition, % (concentration not given with the values); cell-free CFP-Ran/YFP-importin-beta FRET ratio; hit rate 1.1% among 300,000;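 active means most replicates above 15%; inconclusive means exactly half above 15%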;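 further: 0% = DMSO wells and 100% = Ran loaded with GDP instead of GTP; wells of about 40 µL received 100 nL stock; the first replicate is given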
Beta2AR agonist – beta2AR agonists driving receptor internalization, primary screen, cell-based, FAP fluorogen, flow cytometry; Beta-2 adrenergic receptor (Homo sapiens), P07550; Am2.2-beta2AR cells; reference of the scale not given here; response, % (test concentration not listed); hit rate 0.43% among 340,000; AID 504454, 2011;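 active means response above a set limit, near 3 SD of response in nonfluorescent compounds, cut at about 42% in these data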;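 further: stock transfer was 100 nL into about 11 µL; a reference agonist was the positive control; negative values mostly stem from fluorescent compounds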
Target sequence (P07550 whole entry, looked up): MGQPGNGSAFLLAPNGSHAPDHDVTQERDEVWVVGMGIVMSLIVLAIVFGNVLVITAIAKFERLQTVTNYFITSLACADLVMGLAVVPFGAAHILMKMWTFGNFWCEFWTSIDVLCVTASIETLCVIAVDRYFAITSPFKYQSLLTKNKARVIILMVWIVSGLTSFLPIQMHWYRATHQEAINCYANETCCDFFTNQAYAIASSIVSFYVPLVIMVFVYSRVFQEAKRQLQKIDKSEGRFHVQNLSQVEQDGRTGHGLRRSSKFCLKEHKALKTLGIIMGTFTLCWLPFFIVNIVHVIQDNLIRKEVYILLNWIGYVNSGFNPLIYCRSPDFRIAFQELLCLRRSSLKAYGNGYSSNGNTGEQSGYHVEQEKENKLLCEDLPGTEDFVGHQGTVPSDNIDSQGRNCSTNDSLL
T cruzi repl – inhibitors of intracellular T. cruzi growth, primary screen, luminescence, NIH3T3 host cells; T. cruzi beta-gal in NIH3T3, 90 h; hit rate 1.4% among 300,000; inhibition, % (test concentration not listed);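 active means mean inhibition across valid replicates above about 55%, limit read from the data; inconclusive means mean below that limit but half or more replicates reach it; inactive means mean below it, under half of replicates reach it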;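 further: signal also drops with host cell toxicity which is not excluded here; 0% = plate median of DMSO wells and 100% = zero luminescence signal; higher percent means less beta-gal luminescence so fewer parasites; stock transfer was 50 nL into about 50 µL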
Numbers without * were called inactive; ? = inconclusive; · = no result given. Not a hit list. Share with any hit: about 4.3%.

SMILES	LANA-H2B inh	A1 inh	Calb FLC	UCH37 inh	Beta apoptosis	RanGTP-Imp inh	Beta2AR agonist	T cruzi repl
COc1ccc(NC(=O)CC2SC(=Nc3ccccc3)NC2=O)c(OC)c1 (stereo not given)	-2.9	-0.7	-4	0.9	3	0.6	4	10
COc1ccc(NCc2cc3ccccc3[nH]c2=O)cc1	0.6	0.1	-1	-9.9	0	5.9	2	14
N#C/C(=C\c1ccccc1[N+](=O)[O-])C(=O)NCc1ccccc1	1.1	0.6	-9	2.2	-13	-1.0	9	-3
N#CCCN(C(=O)COc1ccc(C#N)cc1)c1ccc(F)cc1	-1.1	-0.8	5	-1.9	-18	-1.6	-3	-3
COC(=O)C1=C(C(=O)OC)[C@@H]2Nc3ccccc3[C@@]23C[C@@H](C(=O)OC)N(C(=O)COCc2ccccc2)C3=N1	-1.9	-0.7	-4	1.5	-3	-1.9	3	-22
CC(C(=O)NC(c1ccccc1)c1ccccc1)N1CCOCC1 (stereo not given)	1.9	-0.1	-3	6.1	-4	-2.8	1	-4
Cc1ccc(-n2c(SCC(=O)OC(C)C)nnc2-c2ccccn2)cc1	1.7	0.5	-9	0.1	2	2.1	12	5
COc1ccc(NC(=O)/C(Cl)=C(/Cl)S(=O)Cc2ccc(C)cc2)cn1 (stereo not given)	0.7	7.8*	62	5.6	106*	-8.8	·	46
CCCc1nnc(NC(=O)Nc2ccccc2OC)s1	1.9	0.0	-1	2.6	-2	-5.0	5	11
CN(n1cnc2ccccc2c1=O)S(C)(=O)=O	4.8	1.1	4	5.9	-3	2.7	-3	-1
COc1ccccc1NC(=S)N(CCCN1CCOCC1)Cc1cn(C)c2ccccc12	-2.7	-0.4	0	4.1	-2	?	7	2
O=C(C1CCN(Cc2cccs2)CC1)N1CCN(Cc2ccc3c(c2)OCO3)CC1	-2.6	-0.7	-28	-0.5	-4	-0.5	2	3
CC(C)Cc1c(O)nc(SCC(=O)Nc2ccc3c(c2)CCC3)[nH]c1=O	-4.7	-0.6	-9	14	-1	-2.4	0	-19
O=C(CSCC(=O)N1CCCCC1)OCC(=O)c1c[nH]c2ccccc12	5.2	0.3	-16	1.0	1	0.6	4	-20
CCc1c(O)nc(SCC(=O)N2CCCCC2)n(-c2ccccc2C)c1=O	3.7	0.8	-4	2.2	4	0.8	1	·
COc1ccccc1CC(=O)N1CCN(c2ccc([N+](=O)[O-])cc2)CC1	-3.7	0.5	2	3.7	7	1.1	-3	7
Cc1ccc(N=C2S/C(=C/c3cccc(OCC(=O)O)c3)C(=O)N2C)cc1C	0.9	-0.6	13	10	-5	-0.6	0	-3
CS(=O)(=O)N1CCC(C(=O)Nc2ccc3c(c2)OCCO3)CC1	11	-0.9	-5	0.2	-5	-2.8	3	3
Cc1ccc(NC(=O)C(=O)NCCOc2ccccc2Cl)cc1	-3.2	1.1	-16	4.2	1	6.4	8	-6
Cc1ccc(OCCOCCOc2ccc(Br)cc2/C=N\NC(=O)c2ccncc2)cc1	-3.3	?	19	·	2	3.2	-3	-30
O=C(NC1CCCCC1)C1CCC(CNS(=O)(=O)c2ccccc2)CC1 (stereo not given)	-2.7	0.1	-15	2.2	0	0.9	-7	-8
COc1cccc(-c2nc(CS(=O)(=O)CC(=O)N3CCN(C)CC3)c(C)o2)c1	-0.9	0.0	-7	4.3	-2	1.1	-4	2
CC(C)C(=O)c1c(C(C)C)nn2ccccc12	0.1	2.4	·	3.6	2	1.6	-11	-16
O=C(NCc1ccc(C(F)(F)F)cc1)C1CC(c2ccccc2C(F)(F)F)=NO1 (stereo not given)	2.6	?	10	1.0	-1	1.0	-6	-2
Cc1csc(NC(=O)CSc2nnc(NC(=O)NC(C)(C)C)s2)n1	-6.0	-0.9	-6	1.9	1	1.2	8	-7

Continued (six carried over from the part before).
SMILES	LANA-H2B inh	A1 inh	Calb FLC	UCH37 inh	Beta apoptosis	RanGTP-Imp inh	Beta2AR agonist	T cruzi repl
Cc1ccc(OCCOCCOc2ccc(Br)cc2/C=N\NC(=O)c2ccncc2)cc1	-3.3	?	19	·	2	3.2	-3	-30
O=C(NC1CCCCC1)C1CCC(CNS(=O)(=O)c2ccccc2)CC1 (stereo not given)	-2.7	0.1	-15	2.2	0	0.9	-7	-8
COc1cccc(-c2nc(CS(=O)(=O)CC(=O)N3CCN(C)CC3)c(C)o2)c1	-0.9	0.0	-7	4.3	-2	1.1	-4	2
CC(C)C(=O)c1c(C(C)C)nn2ccccc12	0.1	2.4	·	3.6	2	1.6	-11	-16
O=C(NCc1ccc(C(F)(F)F)cc1)C1CC(c2ccccc2C(F)(F)F)=NO1 (stereo not given)	2.6	?	10	1.0	-1	1.0	-6	-2
Cc1csc(NC(=O)CSc2nnc(NC(=O)NC(C)(C)C)s2)n1	-6.0	-0.9	-6	1.9	1	1.2	8	-7
CC(=O)Nc1ccc(N(C(=O)CNC(=O)c2ccco2)C(C(=O)NCC2CCCO2)c2ccccc2)cc1 (stereo not given)	-2.0	-0.7	15	4.0	0	-1.8	8	-7
COc1ccc(C(=O)NC2CCCCC2)cc1S(=O)(=O)N1CCOCC1	-3.7	-0.5	0	1.7	0	0.3	-6	3
O=[N+]([O-])c1ccc(N2CCCCC2)s1	-5.5	0.6	8	20*	-4	-11	-2	12
O=c1cc(CSc2nnc(Nc3ccccc3F)s2)nc2sccn12	-5.0	-1.3	3	4.4	-2	2.1	-5	11
O=C(Nc1ccc(NS(=O)(=O)c2ccccc2)cc1)c1cccnc1	3.8	0.0	-6	2.8	1	?	10	0
Cc1cc(C)cc(C(=O)NCC(=O)OCc2nc(N)nc(Nc3ccccc3C)n2)c1	-1.3	-1.6	·	1.9	0	·	8	·
COc1ccc(CC(=O)Nc2nnc(SCC(=O)NCc3ccco3)s2)cc1OC	-0.4	0.7	3	0.9	4	-2.7	3	-7
O=C(NCCc1cccc(F)c1)C1CCN(S(=O)(=O)c2ccc(F)cc2)CC1	-0.4	1.0	-14	0.3	-7	8.6	8	1
O=C1CC(c2ccco2)CC(O)=C1C=Nc1ccccc1-c1ccccc1 (stereo not given)	0.9	0.0	12	-20	-10	1.1	-3	-19
COc1cccc(NCc2cc(=O)oc3cc(C)c(O)cc23)c1	-5.2	0.3	9	3.8	4	-3.4	6	24
Cc1ccc(NC(=O)CCCc2nc3ccccc3s2)c(O)c1	-2.0	0.2	51	2.8	4	0.2	-2	-3
Cc1ccc(CNC(C)(C)CO)cc1	0.4	-0.5	-16	2.1	0	-4.4	-5	-15
Cc1ccc(C(=O)NCCCNC(=O)COc2ccc(C)c(C)c2)cn1	18	0.8	4	4.0	-1	0.6	-2	-9
C/C(=C\[C@@H](NP(=O)(c1ccccc1)c1ccccc1)c1ccccc1)CO[Si](c1ccccc1)(c1ccccc1)C(C)(C)C	-0.5	0.0	-2	-1.3	14	6.8	-1	4
CCOC(=O)C(C)Oc1c(C(=O)OC)sc2ncccc12 (stereo not given)	-2.1	1.0	-1	-1.6	1	-3.4	-1	-6
CS(=O)(=O)c1ccc(C(=O)OCC(=O)NC2CCS(=O)(=O)C2)cc1[N+](=O)[O-] (stereo not given)	1.6	0.3	6	4.6	0	5.3	-4	-17
S=c1[nH]nc(C(c2ccccc2)C2CCCCC2)o1 (stereo not given)	-0.3	-0.1	5	7.1	0	-0.9	6	-2
COC(C/C=C\[C@H](O)[C@@H](C)OCc1ccccc1)OC	-4.4	0.9	9	-0.6	0	-1.2	-4	-1
CCC(=O)c1ccc(N2CCN(C(=O)c3cc([N+](=O)[O-])ccc3F)CC2)c(F)c1	3.1	0.2	4	1.5	5	1.2	-6	10
COCCn1c(SCc2nnc(-c3ccccc3)o2)nc2sc3c(c2c1=O)CCC3	·	·	5	7.8	·	3.9	121*	15
CC(=O)c1ccc(N2CCN(C(=O)C3CCN(S(=O)(=O)Cc4ccccc4)CC3)CC2)cc1	3.8	-0.5	-2	8.1	-3	0.4	7	-3
CCCc1[nH]nc2c1C1(C(=O)N(C(C)C)c3ccccc31)C(C#N)=C(N)O2 (stereo not given)	-1.9	-0.3	4	0.5	·	-3.7	10	10
COCc1c(C(=O)N/N=C(\C)c2ccncc2)nnn1-c1nonc1N	-0.5	0.2	9	·	-11	6.2	-5	-10
COC(=O)c1ccccc1NC(=O)C1=CC(c2cccs2)=NS(=O)(=O)N1C	-4.3	·	-1	5.6	-1	-0.6	2	3
COc1ccc(NC(=O)c2ccccc2OCc2ccc(F)cc2)c(OC)c1	-3.6	-0.3	9	4.9	14	4.8	-9	13
(list continues)
SMILES	LANA-H2B inh	A1 inh	Calb FLC	UCH37 inh	Beta apoptosis	RanGTP-Imp inh	Beta2AR agonist	T cruzi repl
O=C(/C=C/c1ccccc1[N+](=O)[O-])NCCN1C(=O)S/C(=C\c2ccc(F)cc2)C1=O	-2.4	-3.8	-4	-0.1	0	0.5	-6	-29
CCN(CC)CCn1c2c(c(SCC(=O)Nc3ccc(C(C)C)cc3)nc1=O)CCCC2	-7.4	0.1	14	3.6	9	3.1	20	-24
Cc1cccc(CC(=O)N2CCOCC2)c1	-2.9	0.5	-3	1.4	-2	?	0	-3
N#CCCSCc1ccc2oc(C(=O)O)cc2c1	1.5	0.8	-17	-1.1	0	9.5	1	-10
COc1ccc(N2CCN(CCNC(=O)Nc3ccc(C)c(Cl)c3)CC2)cc1	-1.0	1.0	-1	1.0	-1	0.1	-5	8
COc1ccc(OC)c(NC(=O)C2CC(=O)N(CCc3ccccc3)C2)c1 (stereo not given)	0.5	0.6	1	-0.3	-3	-1.5	-2	-2
O=C(Nc1ccc(N2CCCC2)cc1)c1ccc([N+](=O)[O-])cc1Cl	-0.8	-0.4	-20	4.3	-3	0.6	-2	21
CCCN(Cc1ccco1)S(=O)(=O)c1ccc(OC)c(OC)c1	-1.1	1.4	12	5.4	-7	-1.7	2	-1
S=c1[nH]nc(-c2ccc(Cl)cc2)n1CCCN1CCOCC1	8.3	0.3	-8	-1.1	-1	-2.3	2	-5
CCN(CC)C(=O)Oc1ccc(NC(C)=O)cc1	-2.2	0.5	?	2.6	2	-2.7	-4	1
CC(=O)c1cc(C(C)=O)c(C)nc1C	5.0	1.6	5	-0.8	-3	-1.8	0	-9
COc1ccc(N(C(=O)c2cccnc2)S(=O)(=O)c2ccccc2)cc1	-3.5	-0.1	8	4.5	-5	0.3	-4	-6
Cc1ccc(-n2ncc3c(N4CCN(c5ccc(F)cc5)CC4)ncnc32)c(C)c1	5.8	2.4	25	2.3	15	-3.6	8	38
O=C(Cn1cnc2c(nnn2Cc2ccc(F)cc2)c1=O)NCc1ccco1	-4.9	0.1	1	0.1	-2	-1.2	-8	-15

Bioassay records from PubChem.
